Screens deposited in PubChem by several laboratories.
Calb FLC – C. albicans growth modulation with fluconazole | growth inhibition, % (test concentration not listed) | C. albicans CaCi-2 (fluconazole-resistant clinical isolate) + fluconazole, Alamar Blue growth, 48 h | 300,000 compounds, 0.57% hits;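 active = most replicates above 75%; inconclusive = exactly half above 75%; inactive = most below 75%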;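 note: all wells also contain fluconazole at 8 µg/ml as a sub-toxic cotreatment; 0% = median of DMSO wells and 100% = median of geldanamycin control wells; wells of about 8 µL received 7.5 nL stock; the first replicate is given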
Ecoli rRNA inh – selective bacterial rRNA inhibition in E. coli; E. coli WT GFP vs humanized-ribosome RFP mutants, fluorescence, 24 h; hits give low values; DMSO median 0, no signal -100; GFP signal change (wild-type ribosome), % (no concentration beside the values); 350,000 compounds, 1.6% hits; AID 720706;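 active = significant combined selectivity score with lowered wild-type GFP, culture density cut under 30%, mutant RFP and density less affected; inactive = any of these conditions unmet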; note: one replicate is shown; some compounds called inactive have numbers as strong as hits
Beta cell apopt – blocks beta cell apoptosis; 300,000 compounds, 0.8% hits; INS-1E cytokine-induced death, ATP luminescence, 48 h; percent of positive-control rescue, neutral wells zero; protection from apoptosis, % (test concentration not listed);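 active = all replicates at 75% or more, or half of them and the mean; inconclusive = half reach 75% but not the mean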;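 note: 0% = cytokine-treated negative control wells and 100% = positive control rescue; higher means more ATP so stronger rescue from cytokine killing; wells of about 40 µL received 100 nL stock; the first replicate is given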
B2AR ag – agonists of human beta-2 adrenergic receptor inducing internalization | P07550 | Am2.2-beta2AR cells, FAP receptor internalization, flow cytometry; reference of the scale not given here | response, % (test concentration not listed) | 340,000 compounds, 0.43% hits;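 active = response above a set limit, near 3 SD of response in nonfluorescent compounds, cut at about 42% in these data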;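 note: stock transfer was 100 nL into about 11 µL; a reference agonist was the positive control; negative values mostly stem from fluorescent compounds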
Bfl-1 A1 inh – inhibitors of the anti-apoptotic protein A1, read as caspase activation; caspase activation, % (concentration not given with the values); 330,000 compounds, 0.066% hits; MEF A1-2A-BIM cells, Caspase-Glo 3/7 luminescence, 3 h; percent of clofoctol response, vehicle zero; AID 2462;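 active = over half of replicate activation scores above 10%, or exactly half above 10 with the replicate mean above 10; inconclusive = replicate mean below 10 yet half the replicates above 10; inactive = over half of replicates below 10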;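 note: wells of about 30 µL received 50 nL stock; many hits fall short of the cut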
LANA-H2B inh – blocks KSHV LANA binding to histone H2A/H2B; AID 2629; Q9QR71; 320,000 compounds, 0.6% hits; inhibition, % (test concentration not listed); cell-free LANA-H2A/H2B peptide, fluorescence polarization; in the data active = inhibition mostly above about 10%, no sharp cut-off; inactive = mostly below about 6.7%;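 note: stock transfer was 7.5 nL into about 10 µL; 0% = median of vehicle wells and 100% = median of positive control wells; one replicate is shown; the record names a cut of 25% in any replicate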
Target sequence (Q9QR71 whole entry, looked up): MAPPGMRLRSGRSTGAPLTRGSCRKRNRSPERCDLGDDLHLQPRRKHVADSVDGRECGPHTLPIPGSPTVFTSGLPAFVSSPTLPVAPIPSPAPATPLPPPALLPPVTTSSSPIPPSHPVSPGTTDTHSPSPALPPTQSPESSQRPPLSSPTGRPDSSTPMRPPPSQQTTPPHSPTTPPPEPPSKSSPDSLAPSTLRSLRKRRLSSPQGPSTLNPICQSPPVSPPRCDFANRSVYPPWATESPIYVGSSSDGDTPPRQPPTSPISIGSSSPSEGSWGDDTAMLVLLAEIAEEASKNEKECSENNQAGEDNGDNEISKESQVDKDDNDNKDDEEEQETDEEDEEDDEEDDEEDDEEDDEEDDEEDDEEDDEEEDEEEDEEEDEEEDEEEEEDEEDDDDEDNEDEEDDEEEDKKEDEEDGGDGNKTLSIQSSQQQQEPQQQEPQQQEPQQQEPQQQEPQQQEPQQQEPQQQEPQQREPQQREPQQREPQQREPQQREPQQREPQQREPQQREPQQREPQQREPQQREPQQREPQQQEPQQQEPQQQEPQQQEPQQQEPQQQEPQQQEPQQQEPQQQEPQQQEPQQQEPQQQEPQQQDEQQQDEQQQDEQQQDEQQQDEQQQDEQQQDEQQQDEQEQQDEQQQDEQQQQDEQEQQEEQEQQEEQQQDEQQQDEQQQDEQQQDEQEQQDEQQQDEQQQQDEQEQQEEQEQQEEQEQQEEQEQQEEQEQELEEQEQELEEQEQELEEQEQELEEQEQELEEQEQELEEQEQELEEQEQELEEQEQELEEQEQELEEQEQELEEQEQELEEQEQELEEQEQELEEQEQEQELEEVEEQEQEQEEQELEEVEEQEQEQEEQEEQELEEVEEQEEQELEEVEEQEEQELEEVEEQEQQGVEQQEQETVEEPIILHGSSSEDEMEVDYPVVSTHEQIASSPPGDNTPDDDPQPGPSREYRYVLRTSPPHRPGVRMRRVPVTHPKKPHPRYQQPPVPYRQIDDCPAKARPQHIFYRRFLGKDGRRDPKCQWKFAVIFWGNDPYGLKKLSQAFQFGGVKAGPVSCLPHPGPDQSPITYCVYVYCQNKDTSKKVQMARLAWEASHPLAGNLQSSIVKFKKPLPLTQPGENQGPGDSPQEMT
ALR H2O2 inh – human ALR oxidase inhibition via reduced H2O2. P55789. purified ALR, DTT oxidation, H2O2 HRP-luminol luminescence. AID 485317. 290,000 compounds, 3.8% hits. inhibition, % (test concentration not listed);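 active = mean and each replicate at 75% or more; inconclusive = only one of the two met; inactive = neither met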;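 note: stock transfer was 7.5 nL into about 7.5 µL; 0% = neutral wells and 100% = wells with inactivated enzyme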
T cruzi repl – blocks replication of Trypanosoma cruzi; inhibition, % (no concentration beside the values); 300,000 compounds, 1.4% hits; T. cruzi beta-gal in NIH3T3, luminescence, 90 h;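 active = mean inhibition across valid replicates above about 55%, limit read from the data; inconclusive = mean below that limit but half or more replicates reach it; inactive = mean below it, under half of replicates reach it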;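 note: signal also drops with host cell toxicity which is not excluded here; 0% = plate median of DMSO wells and 100% = zero luminescence signal; higher percent means less beta-gal luminescence so fewer parasites; stock transfer was 50 nL into about 50 µL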
Ecoli rRNA inh OD600 – recorded beside Ecoli rRNA inh, whose call it bears; OD600 change, %; measured here: OD600 growth;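 optical density of the mix in the first replicate; 0 = DMSO median and -100 = no signal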
Ecoli rRNA inh RFP – further read-out of Ecoli rRNA inh, marked with its call; RFP signal change, %; measured here: RFP humanized mutant strains;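 first replicate; 0 = DMSO median and -100 = no signal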
The depositor's hits bear a star; ? = inconclusive; . = not tested or not shown; & = joins results of further samples.

SMILES	Calb FLC	Ecoli rRNA inh	Ecoli rRNA inh OD600	Ecoli rRNA inh RFP	Beta cell apopt	B2AR ag	Bfl-1 A1 inh	LANA-H2B inh	ALR H2O2 inh	T cruzi repl
CCCn1c(COc2ccccc2OC)nc2ccccc21	5	-22	-25	-2.8	.	-4	-0.6	-1.0	13	-2
CCOc1ccc(N2CSC3=C(C#N)C(c4ccco4)CC(=O)N3C2)cc1 (stereo unspecified)	-6	7	2	5.9	-1	4	0.2	7.4	9	-3
O=c1[nH]c(/C=C\c2cccc(C(F)(F)F)c2)nc(O)c1[N+](=O)[O-]	-3	7	6	0.5	.	-2	.	.	.	4
CCN1C(=O)C(=O)N(CC(=O)c2[nH]c(C)c(C(C)=O)c2C)C1=O	-2	-2	2	-2.2	-3	0	0.4	7.8	-5	-11
COc1ccc(S(=O)(=O)NCCc2c(C)nn(C)c2Oc2ccccc2)cc1	?	.	.	.	-10	-1	-0.1	3.1	-16	7
CCn1c(C(=O)O)c(CC(=O)NC2CCCCCC2)c2ccccc21	-4	1	-14	-0.7	-2	11	-0.3	-5.1	-4	-12
N#Cc1ccccc1NC(=O)c1ccc2c(c1)OCCO2	-4	2	0	-2.0	.	9	0.1	1.0	-2	-1
COc1ccc2c(c1)CCc1sc(NC(=O)c3ccco3)nc1-2	37	.	.	.	2	2	0.6	6.8	-36	-6
Cc1nc(/C=C/c2ccccc2)cc(/C=C/c2ccccc2)n1	1	.	.	.	-10	5	0.4	-3.4	-15	-12
COc1ccc(-c2cc(C(=O)OCC(=O)Nc3cc(C)on3)c3ccccc3n2)cc1OC	1	.	.	.	0	-6	-0.8	7.4	10	1
CCOc1ccc(CCNC(=O)COC(=O)C2CC2)cc1OCC	6	12	11	-0.8	-2	-2	-0.1	-0.4	.	1
O=S(=O)(NCc1cn2ccsc2n1)c1cccs1	-8	.	.	.	-5	2	-0.2	10	-1	-6
COc1ccc(C2CC(c3cccs3)=NN2c2ccccc2)cc1 (stereo unspecified)	-38	-16	-6	2.4	-1	11	0.1	-2.4	98*	19
COc1ccc(CNC(=O)Nc2ccc3c(c2)N(C)C(=O)CS3)cc1	-3	0	-1	-2.4	10	8	0.6	-7.6	-6	-7
COC(=O)c1sccc1NC(=O)C1CC=CCC1C(=O)O (stereo unspecified)	-1	.	.	.	-4	0	2.1	-0.3	4	-13
CC[n+]1c(/C=C/N(C)c2ccccc2)oc2ccc(Cl)cc21	-7	-6	-10	-0.1	56	-63	-0.1	5.1	28	53
Nc1nonc1C(=O)OCC(=O)N1CCOCC1	-13	.	.	.	-1	-2	0.4	-3.4	-5	-19
Cc1cc(=O)oc2cc(NS(=O)(=O)c3ccc(F)cc3)ccc12	6	-22*	-15*	-2.4*	5	-6	0.6	1.8	1	-20
CCCn1c(=N)n(CC(=O)OCC)c2ccccc21	-1	.	.	.	-1	-3	-0.4	-1.7	-5	-6
Cn1cc(CC(=O)NC2CCCCC2)c2ccccc21	-3	10	11	0.8	-5	6	-0.4	7.8	32	4
CC(NC(=O)COC(=O)c1ccc2ccccc2n1)C1CC2CCC1C2 (stereo unspecified)	6	3	-1	1.6	3	-8	-0.7	8.0	.	-11
O=C(O)c1nn(-c2cccc(Cl)c2)c(=O)cc1O	9	0	5	-1.5	-9	3	0.7	-2.5	5	-19
O=C(NCCc1nnc2ccc(NCc3ccc(F)cc3)nn12)c1ccccc1	18	7	-2	-1.2	-4	-10	-0.1	-2.8	-1	7
CCCSc1ccc([C@@H]2[C@@H]3C(=O)N(C)C(=O)[C@@H]3[C@]3(C(=O)OC)CCCN23)cc1OC	.	-6	0	1.7	1	2	-0.3	-13	2	.
COc1cc(/C=N/NC(=S)Nc2cccc(S(=O)(=O)N(C)C)c2)cc(OC)c1O	?	-1	-3	10	-3	-4	1.0	.	.	-14
SMILES	Calb FLC	Ecoli rRNA inh	Ecoli rRNA inh OD600	Ecoli rRNA inh RFP	Beta cell apopt	B2AR ag	Bfl-1 A1 inh	LANA-H2B inh	ALR H2O2 inh	T cruzi repl
CN1CCc2c(sc(NC(=O)CS(=O)(=O)c3ccc(F)cc3)c2C(N)=O)C1	1	2	7	-1.2	-3	3	0.0	-1.3	1	-4
COc1ccc(C(=O)Nc2cc3c4c(c2)C(C)C(=O)N4CCC3)cc1 (stereo unspecified)	-1	-7	-6	-0.5	8	-1	-0.7	1.2	-17	-4
O=S(=O)(c1cccc(C(F)(F)F)c1)N(CCCN1CCOCC1)Cc1cccs1	3&-1	-18	-23	-4.8	1&-9	-20&-22	1.3&0.2	0.6&-15	-3&9	-9&12
O=C(Oc1cccc(-c2cnc3ccccc3n2)c1)c1ccco1	1	.	.	.	5	12	-0.1	0.6	.	-5
CCC(CC)NC(=O)c1cccc(NC(=O)C(C)C)c1	?	11	15	0.9	-7	2	-0.4	-5.1	-2	-2
COc1cc(CNC(C)C)c(Br)cc1OC1CCCC1	-30	6	-1	1.6	.	0	-0.6	-3.0	-6	1
O=C(Cn1c(=O)oc2cc(S(=O)(=O)N3CCCC3)ccc21)Nc1cccc(C(F)(F)F)c1	-9	.	.	.	2	7	0.2	2.0	3	-9
Cc1ccc(NC(=O)/C=C/c2ccc([N+](=O)[O-])s2)c(C)c1	2	11	7	4.8	106*	-14	1.5	0.8	.	42
OC(Cc1ccncc1)(c1ccccc1)c1ccccc1	-1	4	7	-9.8	-2	0	-0.4	-0.1	.	45
Cc1nc2ccccc2n1CC(=O)N/N=C/c1cccnc1	-2	9	13	3.7	1	-2	-0.4	2.2	-9	-15
C=C(C)Cn1c(C)cc(C)c(S(=O)(=O)c2ccc(C)cc2)c1=O	?	2	2	1.4	0	-8	1.1	-3.1	6	12
COc1ccccc1-c1nc2ccccc2nc1-c1ccccc1	-6	-49	-64	-12	1	-9	-0.1	-0.3	-6	34
CC(C)N1CCC(N2CCN(Cc3cc4c(cc3Cl)OCO4)CC2CCO)CC1 (stereo unspecified)	-23	22	18	1.7	2	2	-2.3	4.9	-6	-1
O=C(COc1ccc(Cl)cc1Cl)Nc1ccccc1NS(=O)(=O)c1cccs1	8	5	-2	-4.0	6	3	-0.3	0.7	-10	-8
Cn1c(=O)c2c(nc(N3CCN(c4ccccc4)CC3)n2CCCc2ccccc2)n(C)c1=O	-1	.	.	.	7	-4	0.2	0.0	13	16
CC(=O)N1CCN(c2ccc(NC(=O)c3ccc([N+](=O)[O-])o3)cc2Cl)CC1	-3	2	4	-3.0	-2	11	0.4	4.6	-27	6
COc1ccc(NC(=O)C2CCCN(c3cnccn3)C2)cc1 (stereo unspecified)	-2	4	-7	-1.2	0	2	-1.3	-1.0	-9	54
CCOC(=O)c1c(-c2cccc([N+](=O)[O-])c2)csc1NC(=O)C1CCCCC1	1	.	.	.	3	-2	0.1	-1.8	-2	26
COc1ccc(C(=O)NC(C(=O)N2CCN(c3ccccc3O)CC2)C(C)C)cc1 (stereo unspecified)	-5	-3	-1	3.8	.	0	0.4	-0.2	66	-2
CC1CCN(C(=O)c2ccc(S(=O)(=O)N(C)C)cc2)C(C)C1 (stereo unspecified)	-4	.	.	.	0	-3	0.2	0.6	1	-2
O=C1OC(Cc2ccccn2)C(O)=C1C1=NCCCCN1 (stereo unspecified)	32	.	.	.	-11	-8	-1.0	-2.0	4	-7
Cc1ccc(Cn2nnc3c(=O)n(CC(=O)NCc4ccc5c(c4)OCO5)cnc32)cc1	-1	-5	-5	-2.3	1	-14	0.6	-0.4	-3	21
CCN(CC)CCNC(=O)c1cc(-c2cccnc2)nc2ccc(S(=O)(=O)N3CCC(C)CC3)cc12	1	1	14	-0.2	6	19	1.9	5.0	-1	-7
Cc1ccc(S(=O)(=O)NC(=O)COc2ccccc2)cc1	-27	11	3	1.5	-8	10	0.7	0.5	.	.
S=C(Nc1cccc(Cl)c1Cl)Nn1cnnc1	-19	.	.	.	-5	11	0.5	1.9	-5	-8
SMILES	Calb FLC	Ecoli rRNA inh	Ecoli rRNA inh OD600	Ecoli rRNA inh RFP	Beta cell apopt	B2AR ag	Bfl-1 A1 inh	LANA-H2B inh	ALR H2O2 inh	T cruzi repl
Cc1cc(C(=O)NC2CC(C)(C)Cc3c2cnn3-c2ccccc2)n(C)n1 (stereo unspecified)	2	4	6	-0.6	2	-8	-0.6	2.1	-1	-2
Cc1cc(C)n(CC(=O)N/N=C/c2cccc([N+](=O)[O-])c2)n1	-2	.	.	.	-8	-2	0.5	-1.7	1	3
CS(=O)(=O)N(CC(=O)NC1CCCCC1)Cc1ccc(F)cc1	-1	6	10	2.1	-11	-5	2.3	1.9	0	-28
Cc1ccc(S(=O)(=O)NC2CCCCC2)c2nsnc12	1	8	-4	-1.4	-5	3	2.1	-2.7	-15	22
FC(F)(F)c1ccccc1NC(=S)N1CCN(Cc2ccc3c(c2)OCO3)CC1	8	-6	-12	-3.5	82*	-3	0.2	1.6	.	-1
COc1cc(C(=O)Nc2scc(-c3ccc(Br)cc3)c2C(=O)O)cc(OC)c1OC	-6	-54	-77	-17	6	7	2.0	4.3	54	3
O=C(CNC(=O)c1ccc(Br)cc1)N=Nc1c(O)[nH]c2ccc([N+](=O)[O-])cc12	-4	0	8	0.9	-4	-2	-0.3	-8.5	.	-4
O=C(Nc1ccc(F)cc1)c1ccc(-n2ccnc2)nc1	2	.	.	.	9	-1	-0.2	0.4	-9	-19
O=C(CC1NCCNC1=O)Nc1ccc2c(c1)OCO2 (stereo unspecified)	1	.	.	.	-5	-8	0.1	0.4	-3	-12
CCOc1ccccc1NC(=O)c1cc(=O)c2ccccc2o1	-3	-1	3	-3.6	-3	-1	1.1	-7.2	-3	16
CCOc1ccc(C(=O)N/N=C/c2cccc3cccnc23)cc1	3	.	.	.	20	17	-0.4	5.9	28	-7
CC1CCN(S(=O)C23CC4CC(CC(C4)C2)C3)CC1 (stereo unspecified)	-17	6	-5	-0.9	1	3	-0.1	2.1	5	1
Brc1ccc(-c2ccc(C3Nc4cccc5cccc(c45)N3)o2)cc1	.	.	.	.	-9	.	-1.0	8.7	-18	.
O=C(COc1ccccc1Br)N1CCN(c2ccccc2)CC1	-10	.	.	.	4	2	0.2	2.5	-8	6
N#C/C(=C(/O)CN1CCN(c2ccccc2F)CC1)c1nc(-c2ccc(Cl)cc2)cs1	-1	-7	-9	9.1	22	12	0.4	-0.6	-1	-44
Cc1[nH]c(=O)[nH]c(=O)c1S(=O)(=O)N1CCCc2ccccc21	6	7	6	-0.9	-1	2	-0.2	-0.6	-4	-21
Cc1sc2nc(C(C)C)nc(SCC(=O)N3CCN(C(=O)c4ccco4)CC3)c2c1C	18	.	.	.	-12	-20	-1.3	-5.2	4	16
CC1CCC(C(C)C)C(OC(=O)CSc2nccc(=O)[nH]2)C1 (stereo unspecified)	-29	.	.	.	1	-1	0.3	0.3	4	-20

This is a subset. The share of hits here may be higher or lower than overall.
